Six1-Eya2 blk = blocks human Six1 binding to Eya2; Q15475+O00167; AlphaScreen GST-Six1/His-Eya2 binding, biochemical; active compounds read low; control for the full effect not named in the record; activity change, % (no concentration beside the values); hit rate 0.56% among 360,000; AID 651725; in the data active = activity change below about -65%; inconclusive = about -30% to -65%; inactive = above about -30%; also: % is scaled to controls: 0 for no effect and ±100 for the full control effect
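AlphaScreen with GST-Six1 and His-Eya2 (5X mix: 250 nM and 500 nM), glutathione donor and nickel acceptor beads; buffer 50 mM Tris pH 8.0, 300 mM NaCl, 1 mM TCEP; 1 h at 37 C in the dark.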
PINK1 expr mod = PINK1 expression modulation | PINK1 immunofluorescence, high-content cytometry, 24 h | Potency, µM (highest dose often 76.6 µM), inactives show top-dose activation (PINK1 increase), usual class: activators | hit rate 0.2% among 410,000 | AID 624263; active = well fitted activation curve with a large enough effect; inconclusive = small, poorly fitted or top-dose-only effect; inactive = flat fitted curve, though single readings scatter; cell line not stated here;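 also: potency is read from the fitted curve at half-maximal effect; % of control where 0% means no effect; nearly all actives have a fitted effect of over 65% in size; a mitochondrial uncoupler was the plate control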
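Decision-based qHTS: stable cells, 24 h exposure to five compound concentrations, CCCP as control. Fixed cells stained for PINK1 plus nuclear, mitochondrial and cell markers, cytometer read.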
TRPML1 ag = agonists of human TRPML1 channel | TRPML1-expressing cells, Ca2+ dye fluorescence, FDSS; host cell line not named in the record; reference of the full effect not given here | activation, % (concentration not given with the values) | Q9GZU1 | hit rate 0.12% among 410,000; in the data active = activation above about 50%; inconclusive = about 30% to 50%; inactive = below about 30%; also: 0% is about no effect; the text of the record puts the active cut at 80%
Target sequence (Q9GZU1 whole entry, looked up): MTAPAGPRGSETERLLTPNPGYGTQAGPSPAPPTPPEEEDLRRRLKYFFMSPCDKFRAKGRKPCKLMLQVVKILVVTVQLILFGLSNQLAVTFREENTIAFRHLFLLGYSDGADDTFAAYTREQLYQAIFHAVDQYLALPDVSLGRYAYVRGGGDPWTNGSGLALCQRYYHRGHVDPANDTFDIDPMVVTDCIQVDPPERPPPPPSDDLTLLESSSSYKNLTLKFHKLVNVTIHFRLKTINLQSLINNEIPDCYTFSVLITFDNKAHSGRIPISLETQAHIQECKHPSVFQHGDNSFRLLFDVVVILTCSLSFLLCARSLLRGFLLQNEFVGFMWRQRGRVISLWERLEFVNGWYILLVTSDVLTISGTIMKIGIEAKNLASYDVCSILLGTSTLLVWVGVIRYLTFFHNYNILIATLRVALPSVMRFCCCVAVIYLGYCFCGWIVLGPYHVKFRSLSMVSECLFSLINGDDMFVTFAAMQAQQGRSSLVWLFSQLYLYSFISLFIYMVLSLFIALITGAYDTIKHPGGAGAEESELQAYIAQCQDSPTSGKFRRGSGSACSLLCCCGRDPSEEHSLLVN
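In this qHTS format, compounds were pin-transferred onto Ca8-dye-loaded TRPML1-DL cells induced with Tet overnight, and intracellular Ca2+ fluorescence was recorded kinetically for 110 s after a 10 s baseline. A subsequent 4uM final 54-4 (EC80) addition followed by a second 110 s read served as the antagonist phase.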
CtBP-E1A blk = inhibitors of CtBP/E1A interaction; activity change, % (concentration not given with the values); AID 651724; AlphaScreen GST-E1A/His-CtBP binding, 1536-well; active compounds read low; control for the full effect not named in the record; hit rate 0.49% among 340,000; in the data active means activity change below about -65%; inconclusive means about -30% to -65%; inactive means above about -30%; also: % is scaled to controls: 0 for no effect and ±100 for the full control effect
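GST-E1A and His-tagged CtBP (125 nM each as 5X stock) were preincubated with pin-transferred compound for 2 h at 37 °C in the dark, then glutathione donor and nickel acceptor beads were added for 1 h before AlphaScreen reading.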
D2 potentiator = human D2 receptor positive allosteric modulation | hit rate 0.23% among 360,000 | potentiation, % (concentration not given with the values) | DiscoveRx D2 beta-arrestin cells, luminescence, 90 min; 100% = 57 uM dopamine signal | P14416; active = potentiation of 50% or more; inconclusive = 30% to 50%; inactive = 30% or less;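 also: compound concentration not given in the record; tested on top of an EC20 dose of dopamine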
Target sequence (P14416 whole entry, looked up): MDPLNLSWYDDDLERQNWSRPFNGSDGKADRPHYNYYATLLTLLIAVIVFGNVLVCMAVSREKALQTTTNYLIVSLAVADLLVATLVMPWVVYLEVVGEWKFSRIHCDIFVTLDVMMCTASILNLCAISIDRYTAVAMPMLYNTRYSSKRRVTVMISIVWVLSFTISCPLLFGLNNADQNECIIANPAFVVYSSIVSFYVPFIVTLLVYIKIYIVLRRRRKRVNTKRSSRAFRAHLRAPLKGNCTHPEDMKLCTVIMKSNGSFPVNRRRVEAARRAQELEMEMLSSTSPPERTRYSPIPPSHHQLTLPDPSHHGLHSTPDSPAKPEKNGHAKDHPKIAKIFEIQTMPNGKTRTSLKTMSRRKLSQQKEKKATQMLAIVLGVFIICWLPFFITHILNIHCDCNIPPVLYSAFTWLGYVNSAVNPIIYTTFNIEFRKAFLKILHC
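PathHunter beta-arrestin assay in DiscoveRx D2 cells. Compounds were added with an EC20 of dopamine (50 nM final) for 90 min at 37 deg C. Luminescence was read 1 h after detection reagent, with 57 uM dopamine as the EC100 control.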
D2 ag = human D2 receptor agonism in beta-arrestin assay; DiscoveRx PathHunter D2 beta-arrestin, luminescence, 90 min; 100% = 57 uM dopamine signal; activation, % (concentration not given with the values); hit rate 0.084% among 360,000; AID 624465; in the data active = activation above about 40%; inconclusive = about 15% to 40%; inactive = below about 15%; also: compound concentration not given in the record; the text of the record calls up to 30% inactive
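DiscoveRx PathHunter D2 beta-arrestin cells (2,100/well) attached overnight, then compound-stimulated 90 min at 37 C in HBSS/10 mM HEPES/0.1% Tween-20 buffer; beta-galactosidase complementation read by luminescence after 1 h at ambient temperature. Dopamine 57 uM final (EC100) as control.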
Active calls of the source: *; [ ] = dose if it differs, or a comment.

NS(=O)(=O)c1ccc(CCNC(=O)c2ccc([N+](=O)[O-])s2)cc1 was read as Six1-Eya2 blk 0, PINK1 expr mod inconclusive, TRPML1 ag -1.1, CtBP-E1A blk 0, D2 potentiator 3 and D2 ag 6.2.
Screening COc1c(F)cccc1C1=CC(=O)C[C@H](c2ccc3c(c2)OCO3)C1 returned Six1-Eya2 blk -3, PINK1 expr mod -0.1%, TRPML1 ag 3.1, CtBP-E1A blk 3, D2 potentiator -4 and D2 ag 4.4.
Screening COc1cc(NC(=O)c2ncn[nH]2)cc(OC)c1OC returned Six1-Eya2 blk -21, PINK1 expr mod 0.7%, TRPML1 ag -0.2, CtBP-E1A blk -24, D2 potentiator -5 and D2 ag -1.1.
Screening Cc1ccc(Sc2cc(C(=O)NCCN(C)C)c3ccccc3n2)cc1 returned Six1-Eya2 blk -10, PINK1 expr mod -0.4%, TRPML1 ag 0.2, D2 potentiator -14 and D2 ag 3.4.
COCCNCc1ccccc1 was read as Six1-Eya2 blk 2, PINK1 expr mod 2.0%[38.3 µM], TRPML1 ag 2.1, CtBP-E1A blk 8, D2 potentiator -10 and D2 ag 0.8.
O=C(Nc1ccc(O)cc1)c1cc(S(=O)(=O)N2CCCC2)ccc1Cl was read as Six1-Eya2 blk 2, PINK1 expr mod 0.5%, TRPML1 ag -0.2, CtBP-E1A blk -8, D2 potentiator -14 and D2 ag -3.2.
For Cc1ccc(NC(=O)CCC(=O)N/N=C/c2cccnc2)cc1 the results were Six1-Eya2 blk 4, PINK1 expr mod -0.5%, TRPML1 ag 0.7, CtBP-E1A blk -2, D2 potentiator -6 and D2 ag -3.9.
O=C(C1CC1)N1CCN(c2ccc(F)cc2)CC1 was read as Six1-Eya2 blk 8, PINK1 expr mod 0.7%, TRPML1 ag -1.1, CtBP-E1A blk 5, D2 potentiator 2 and D2 ag -3.3.
For O=C(c1ccc(Cl)cc1)c1oc2ccccc2c1CS(=O)(=O)c1ccccc1 the results were Six1-Eya2 blk 4, PINK1 expr mod 11%[38.3 µM], TRPML1 ag 0.7, CtBP-E1A blk 12, D2 potentiator -8 and D2 ag 3.2.
`COc1ccc(/C(C)=N/NC(=O)CN(c2ccc(OC)cc2)S(=O)(=O)c2ccccc2)cc1` gave Six1-Eya2 blk 15, PINK1 expr mod 5.9%, TRPML1 ag 1.5, D2 potentiator -10 and D2 ag -8.1.
For CCNS(=O)(=O)c1c(C)cc(N2CCCC2=O)cc1C the results were Six1-Eya2 blk inconclusive, PINK1 expr mod 2.4%, TRPML1 ag -0.5, CtBP-E1A blk 0, D2 potentiator -19 and D2 ag -2.7.
`COc1ccc(/C=C2\CCn3c2nc2cc(C(=O)O)ccc2c3=O)cc1` gave Six1-Eya2 blk inconclusive, PINK1 expr mod 6.6%, TRPML1 ag 3.5, D2 potentiator -22 and D2 ag -4.4.
Screening Cc1ccc(CNC(=O)COC(=O)C2CCC2)cc1 returned Six1-Eya2 blk 11, PINK1 expr mod 0.1%, TRPML1 ag -0.4, CtBP-E1A blk 6, D2 potentiator -6 and D2 ag -2.5.
COc1cccc(NS(=O)(=O)c2cc(C)ccc2OC)c1 was read as Six1-Eya2 blk -4, PINK1 expr mod -0.1%, TRPML1 ag 0.1, CtBP-E1A blk 0, D2 potentiator 3 and D2 ag -0.1.
`CCOc1cc2[nH]c(=O)n(CCCC(=O)N(C)Cc3ccccc3)c(=O)c2cc1OCC` gave Six1-Eya2 blk 0, PINK1 expr mod 3.6%, TRPML1 ag -0.6, CtBP-E1A blk -4, D2 potentiator -26 and D2 ag -4.4.
Cc1ccc(C(=O)Nc2cccc(NC(=O)CN3CCCCC3)c2)cc1 was read as Six1-Eya2 blk -15, PINK1 expr mod -1.3%, TRPML1 ag -0.1, CtBP-E1A blk 15, D2 potentiator -8 and D2 ag -2.2.
CCOC(=O)c1[nH]c(C)c(C(=O)NC2CCCC2)c1C was read as Six1-Eya2 blk 1, PINK1 expr mod -0.2%, TRPML1 ag 0.6, CtBP-E1A blk 3, D2 potentiator 0 and D2 ag -3.0.
For O=Cc1ccc(Oc2cc(-c3ccccc3)nc(-c3ccccc3)n2)cc1 the results were Six1-Eya2 blk -2, PINK1 expr mod 6.1%, TRPML1 ag 0.8, CtBP-E1A blk -4, D2 potentiator 4 and D2 ag -1.9.
Screening CCCCC(=O)Nc1ccc(N2CCN(C(=O)CC)CC2)cc1 returned Six1-Eya2 blk -1, PINK1 expr mod inconclusive, TRPML1 ag 0.3, CtBP-E1A blk 13, D2 potentiator 4 and D2 ag 1.2.
`Cc1ccc(C(=O)NCC(=O)N(C)Cc2ccccc2C)s1` gave Six1-Eya2 blk 5, PINK1 expr mod 0.2%, TRPML1 ag -0.6, CtBP-E1A blk -12, D2 potentiator -9 and D2 ag 0.5.
For COc1cccc(N2CCN(c3ncccn3)CC2)c1 the results were Six1-Eya2 blk -5, TRPML1 ag 0.1, CtBP-E1A blk 6, D2 potentiator -19 and D2 ag 0.2.
For CCCCN1C(=O)N(C)C2NC(=S)NC21 (configuration not stated) the results were Six1-Eya2 blk 5, PINK1 expr mod 3.3%, TRPML1 ag 3.0, CtBP-E1A blk 9, D2 potentiator -6 and D2 ag -2.1.
`COc1ccc(-n2c(=O)c(CCC(=O)NCCc3ccccc3F)nc3ccccc32)cc1` gave Six1-Eya2 blk -4, PINK1 expr mod -0.6%, TRPML1 ag -0.7, D2 potentiator -4 and D2 ag -2.5.
`Cc1ccc(C2C3CN(C(C)C)CC=C3C(C#N)=C(N)C2(C#N)C#N)cc1` (configuration not stated) gave Six1-Eya2 blk -14, PINK1 expr mod 25µM*, TRPML1 ag -0.2, CtBP-E1A blk -12, D2 potentiator -45 and D2 ag -9.4.

Among those listed so far, 3 have fluorine:
Screening COc1c(F)cccc1C1=CC(=O)C[C@H](c2ccc3c(c2)OCO3)C1 returned Six1-Eya2 blk -3, PINK1 expr mod -0.1%, TRPML1 ag 3.1, CtBP-E1A blk 3, D2 potentiator -4 and D2 ag 4.4.
O=C(C1CC1)N1CCN(c2ccc(F)cc2)CC1 was read as Six1-Eya2 blk 8, PINK1 expr mod 0.7%, TRPML1 ag -1.1, CtBP-E1A blk 5, D2 potentiator 2 and D2 ag -3.3.
`COc1ccc(-n2c(=O)c(CCC(=O)NCCc3ccccc3F)nc3ccccc32)cc1` gave Six1-Eya2 blk -4, PINK1 expr mod -0.6%, TRPML1 ag -0.7, D2 potentiator -4 and D2 ag -2.5.

(next part)
For COc1ccc(CNC(=O)c2cc(-c3cc(C)cc(C)c3O)n[nH]2)cc1 the results were Six1-Eya2 blk -9, PINK1 expr mod 1.5%, TRPML1 ag 0.0, CtBP-E1A blk -15, D2 potentiator -14 and D2 ag 0.3.
`CC(C)Cc1cc(C(=O)NCc2cccnc2)no1` gave Six1-Eya2 blk 3, PINK1 expr mod 0.0%, TRPML1 ag -0.2, CtBP-E1A blk 1, D2 potentiator -9 and D2 ag 0.7.
Cc1c(NC(=O)c2coc(=O)c(Br)c2)c(=O)n(-c2ccccc2)n1C was read as Six1-Eya2 blk 0, PINK1 expr mod -0.9%, TRPML1 ag -0.1, CtBP-E1A blk 9, D2 potentiator -26 and D2 ag -5.3.
Cc1nc(N2C(=O)C(=O)/C(=C(/O)c3ccccc3)C2c2ccco2)sc1C (configuration not stated) was read as Six1-Eya2 blk inconclusive, PINK1 expr mod -3.4%, TRPML1 ag -0.7, CtBP-E1A blk -10, D2 potentiator 4 and D2 ag -7.3.
`Cc1ccccc1-c1nnc(NC(=O)c2ccc(N3C(=O)CCC3=O)cc2)s1` gave Six1-Eya2 blk 9, PINK1 expr mod -0.9%, TRPML1 ag 0.4, CtBP-E1A blk -2, D2 potentiator -3 and D2 ag 2.9.
CCC(C)(C)NC(=O)CN(C(=O)c1snc(C(N)=O)c1N)c1ccc(OC)c(OC)c1 was read as Six1-Eya2 blk -2, PINK1 expr mod 3.1%, TRPML1 ag 0.5, CtBP-E1A blk 0, D2 potentiator 4 and D2 ag -2.3.
Cn1cc(CNC(=O)c2sc3cccc(Cl)c3c2Cl)cn1 was read as Six1-Eya2 blk 1, PINK1 expr mod -2.9%, TRPML1 ag -0.7, CtBP-E1A blk 1, D2 potentiator -7 and D2 ag -2.1.
Cc1ccc(S(=O)(=O)n2ccc(-c3ccc(OCc4c(F)cccc4Cl)cc3)n2)cc1 was read as Six1-Eya2 blk 1, PINK1 expr mod 6.3%, TRPML1 ag 2.1, CtBP-E1A blk 1, D2 potentiator 11 and D2 ag 0.4.
Screening CC(C)CCNC(=O)c1ccccc1NC(=O)C1=CSCCO1 returned Six1-Eya2 blk 0, PINK1 expr mod -1.9%, TRPML1 ag 1.0, CtBP-E1A blk 2, D2 potentiator 0 and D2 ag 0.4.
For CC(=O)c1ccc(NC(=O)CSc2nc3nc(C)cc(C)n3n2)cc1 the results were Six1-Eya2 blk -15, PINK1 expr mod 3.0%, TRPML1 ag 0.1, CtBP-E1A blk 5, D2 potentiator 2 and D2 ag 6.2.
`O=C(CN1C(=O)c2cccc3cccc1c23)NCc1ccncc1` gave Six1-Eya2 blk -1, PINK1 expr mod -2.6%, TRPML1 ag -0.4, CtBP-E1A blk 11, D2 potentiator -10 and D2 ag -1.9.
`Cc1cccc2c(=O)c(-c3ccc4c(c3)OCO4)c(NC(=O)c3ccco3)oc12` gave Six1-Eya2 blk -2, PINK1 expr mod 0.2%, TRPML1 ag 0.3, CtBP-E1A blk -4, D2 potentiator -3 and D2 ag -3.0.
Screening O=C(NCc1cc(C(F)(F)F)cc(C(F)(F)F)c1)C1CC(c2c(Cl)cccc2Cl)=NO1 (configuration not stated) returned Six1-Eya2 blk 12, PINK1 expr mod 0.2%, TRPML1 ag 0.1, CtBP-E1A blk 14, D2 potentiator -3 and D2 ag -1.0.
For O=C(c1cccc2ccccc12)N1CCC(N2CCN(c3ccccc3)CC2)CC1 the results were Six1-Eya2 blk -12, PINK1 expr mod -1.8%, TRPML1 ag -0.1, CtBP-E1A blk -2, D2 potentiator 16 and D2 ag 7.2.
Screening O=C(NCc1ccc(Cl)cc1)C1CCN(C(=O)c2ccc(Cl)cc2)CC1 returned Six1-Eya2 blk 4, PINK1 expr mod 0.4%, TRPML1 ag 0.0, CtBP-E1A blk -2, D2 potentiator -4 and D2 ag 12.
For COc1cccc(CNC(=O)C2CCN(S(=O)(=O)c3cccc4nonc34)CC2)c1 the results were Six1-Eya2 blk -2, PINK1 expr mod 12%, TRPML1 ag -0.8, CtBP-E1A blk -5, D2 potentiator -10 and D2 ag -14.
CCC(C)OC(=O)C1=C(C)NC(=O)CC1c1ccccc1OC (configuration not stated) was read as Six1-Eya2 blk 8, PINK1 expr mod -2.6%, TRPML1 ag 3.1, CtBP-E1A blk -2, D2 potentiator -4 and D2 ag 0.2.
Screening CC(C)(C)n1nnnc1CN1CCN2CCCC2C1 (configuration not stated) returned Six1-Eya2 blk 16, PINK1 expr mod -0.4%, TRPML1 ag 0.5, CtBP-E1A blk 3, D2 potentiator 0 and D2 ag 1.0.
